# Polio RdRp inh = poliovirus RNA polymerase inhibition. poliovirus polymerase elongation, fluorescence polarization; hits give low values. actives 0.66% (n = 150,000). % elongation, % (compound at 16.7 µg/mL). P03300. AID 588519; in the data active = % elongation below about 90%; note: some results filed as inactive read as strong as hits
# Target sequence (P03300 1749-2209 limits assumed): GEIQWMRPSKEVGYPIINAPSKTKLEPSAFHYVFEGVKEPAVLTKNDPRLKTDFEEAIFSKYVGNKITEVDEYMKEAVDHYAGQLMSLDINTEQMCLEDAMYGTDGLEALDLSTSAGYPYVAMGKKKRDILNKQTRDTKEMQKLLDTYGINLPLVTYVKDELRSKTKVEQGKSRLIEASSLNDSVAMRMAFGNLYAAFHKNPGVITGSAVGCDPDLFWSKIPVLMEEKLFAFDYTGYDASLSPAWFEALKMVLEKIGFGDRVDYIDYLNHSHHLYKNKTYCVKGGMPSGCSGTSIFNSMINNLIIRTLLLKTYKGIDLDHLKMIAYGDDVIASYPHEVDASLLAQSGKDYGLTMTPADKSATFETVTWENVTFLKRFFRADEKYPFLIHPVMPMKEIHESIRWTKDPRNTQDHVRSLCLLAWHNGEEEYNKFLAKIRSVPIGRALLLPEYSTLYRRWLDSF
# Polio RdRp inh intensity = second read-out of Polio RdRp inh, no call of its own (marks repeat the call); % elongation; measured here: total intensity read-out; formula for this scale not given here;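 total fluorescence in place of polarization; lower means less elongation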
# * marks the source's active call; other numbers are inactive results. Some of the compounds tested; count on the stated rates, not on these rows.
canonical_smiles | Polio RdRp inh | Polio RdRp inh intensity
CN(Cc1ccc(F)cc1)S(=O)(=O)c1nnc(NC(=O)c2ccccc2)s1 | 102.0 | 106.0
CCN(CC)C(=O)Cn1c(SCCOc2ccc(Cl)cc2)nc2ccccc21 | 109.0 | 109.0
COc1cc2nc(Nc3ccc(C)c(C)c3)nc(N)c2cc1OC | 98.0 | 102.0
COc1ccc(Cl)cc1NC(=O)Cc1coc2c(C)c(C)ccc12 | 114.0 | 117.0
O=C(NCc1cccs1)c1nn(-c2ccccc2)nc1CO | 107.0 | 114.0
Cc1cccc(CS(=O)(=O)CC2Nc3ccc(C(=O)NCc4ccccc4Cl)cc3NC2=O)c1 (stereo not given) | 166.0 | 228.0
CCOC(=O)c1c(C)[nH]c(C)c1S(=O)(=O)NCC(=O)Nc1cc(Cl)ccc1OC | 107.0 | 108.0
O=C(NCc1ccccc1F)C1CCN(Cc2cc3ccccc3n2Cc2cccc(Cl)c2)CC1 | 110.0 | 112.0
CC(=O)Nc1ccc2nc(SCCOc3cc(C)cc(C)c3)sc2c1 | 104.0 | 109.0
O=C(CCn1c(=O)c2cccn2c2cccnc21)Nc1ccccc1C(F)(F)F | 106.0 | 112.0
CCCN1Cc2cccc(C(=O)Nc3cc(Cl)ccc3C)c2C1=O | 105.0 | 106.0
CC(=O)c1ccc(NC(=O)Cn2c(=O)c3cccn3c3ccccc32)cc1 | 106.0 | 105.0
Cc1ccccc1NC(=O)Cn1c(=O)n(Cc2ccc3c(c2)OCO3)c(=O)c2oc3ccccc3c21 | 111.0 | 112.0
Cc1ccc(Cl)cc1NC(=O)C(NS(=O)(=O)c1cccc2nsnc12)c1ccccc1 (stereo not given) | 105.0 | 108.0
O=c1c2sc3ccccc3c2n(Cc2cccc(Cl)c2)c(=O)n1Cc1ccccc1 | 102.0 | 106.0
CCc1c(C)nc(SCc2nc(-c3ccccc3C)no2)[nH]c1=O | 104.0 | 110.0
Cc1ccc(-c2cc3ncc4c(n3n2)-c2cc(Cl)ccc2OC4)cc1 | 107.0 | 109.0
CC1(C)CC(=O)c2cc(C(=O)Nc3ccc(Br)cc3)c(=O)n(-c3ccc(Cl)cc3)c2C1 | 110.0 | 111.0
Cc1ccc(CNC(=O)CSc2nnc(C)c3c(C)n(-c4ccccc4)nc23)cc1 | 98.0 | 102.0
O=C(CCn1c(=O)c2cccn2c2ccccc21)Nc1ccc(F)cc1 | 110.0 | 110.0
CS(=O)(=O)Nc1ccc(-c2nc3ccccc3s2)cc1 | 108.0 | 111.0
Cc1ccc(OCCn2cc(C(=O)c3cccs3)c3ccccc32)cc1 | 77.0* | 83.0*
Cc1nc(-c2ccccc2)sc1-c1ccc(SCC(=O)Nc2cccc(C(F)(F)F)c2)nn1 | 108.0 | 111.0
CCCCC(CC)CNC(=O)CCCn1c(=O)[nH]c2ccsc2c1=O (stereo not given) | 104.0 | 103.0
O=c1oc2ccccc2cc1-c1cn2cc(Cc3ccc(F)cc3)sc2n1 | 105.0 | 108.0
Cc1c(C(=O)N2CCC(C)CC2)c(S(=O)(=O)NCc2ccc(Br)cc2)c(C)n1C | 107.0 | 111.0
COc1cc(Cl)ccc1Nc1ncc(C(=O)N2CCN(c3ccccc3OC)CC2)c2ccccc12 | 106.0 | 107.0
COc1ccccc1NC(=O)C(=O)NCC(c1ccc2c(c1)OCO2)N1CCN(C)CC1 (stereo not given) | 114.0 | 114.0
CCCS(=O)(=O)c1c(S(=O)(=O)CCC)c2cc(CC)ccn2c1C(=O)c1ccc(OC)cc1 | 103.0 | 104.0
COc1ccc(C(=O)COC(=O)CCCC(=O)Nc2ccc(C(C)=O)cc2)cc1 | 107.0 | 112.0

# Sorted by count of non-hydrogen atoms (smallest number first): 6 of the compounds above
canonical_smiles | Polio RdRp inh | Polio RdRp inh intensity
CS(=O)(=O)Nc1ccc(-c2nc3ccccc3s2)cc1 | 108.0 | 111.0
COc1ccc(Cl)cc1NC(=O)Cc1coc2c(C)c(C)ccc12 | 114.0 | 117.0
CC(=O)Nc1ccc2nc(SCCOc3cc(C)cc(C)c3)sc2c1 | 104.0 | 109.0
Cc1ccc(CNC(=O)CSc2nnc(C)c3c(C)n(-c4ccccc4)nc23)cc1 | 98.0 | 102.0
Cc1ccc(Cl)cc1NC(=O)C(NS(=O)(=O)c1cccc2nsnc12)c1ccccc1 (stereo not given) | 105.0 | 108.0
COc1ccccc1NC(=O)C(=O)NCC(c1ccc2c(c1)OCO2)N1CCN(C)CC1 (stereo not given) | 114.0 | 114.0

# Full records from above. Order of values: Polio RdRp inh, Polio RdRp inh intensity
# Record of `CCCS(=O)(=O)c1c(S(=O)(=O)CCC)c2cc(CC)ccn2c1C(=O)c1ccc(OC)cc1` → 103.0, 104.0
# Record of `Cc1cccc(CS(=O)(=O)CC2Nc3ccc(C(=O)NCc4ccccc4Cl)cc3NC2=O)c1` (stereo not given) → 166.0, 228.0

# Other compounds follow.
canonical_smiles | Polio RdRp inh | Polio RdRp inh intensity
Cc1ccc(-c2nnc(Nc3ccc(F)cc3)c3ccccc23)cc1S(=O)(=O)NC(C)C | 105.0 | 111.0
O=C(CN1C=NS(=O)(=O)c2ccc(C(F)(F)F)cc21)Nc1cccc(C(F)(F)F)c1 | 108.0 | 109.0
COC(=O)c1c(NC(=O)Nc2ccc(Cl)cc2)sc(C)c1C | 102.0 | 109.0
CCN(C(=O)Cc1c(C(=O)O)[nH]c2ccccc12)c1ccc(OC)cc1 | 101.0 | 104.0
CCOc1ccccc1NS(=O)(=O)c1ccc2oc(=O)c3ncn(C)c3c2c1 | 105.0 | 111.0
Cc1ccc(-n2cnc3cc(C(=O)NCCC4=CCCCC4)ccc32)cc1Cl | 103.0 | 105.0
Cc1ccc(-n2c(=O)c3c4c(sc3n(CC(=O)C(C)(C)C)c2=O)CCCCC4)cc1C | 105.0 | 108.0
COc1cccc(-c2nc(CS(=O)(=O)CC(=O)N3CCN(c4ccccc4)CC3)c(C)o2)c1 | 107.0 | 104.0
COc1ccc(CNc2ccc3cc(S(=O)(=O)N4CCCCC4)ccc3n2)cc1 | 112.0 | 115.0
CCc1ccc(NC(=O)Cn2c(=O)n(CCCCC(=O)NCCc3ccc(Cl)cc3)c(=O)c3ccccc32)cc1 | 111.0 | 114.0
Cc1nc2sccn2c(=O)c1S(=O)(=O)Nc1cccc(Cl)c1C | 105.0 | 108.0
CCCCc1nn2c(=O)cc(COC(=O)c3ccc4c(c3)OCO4)nc2s1 | 101.0 | 106.0
CC(=O)c1ccc(NC(=O)CN2C(=O)CCc3cc(S(=O)(=O)N4CCC(C)CC4)ccc32)cc1 | 105.0 | 110.0
Cn1c(=O)n(C)c2cc(CNCCc3ccccc3)ccc21 | 111.0 | 104.0
CCOC(=O)c1c(NC(=O)/C=C/c2ccc(OCC)cc2)sc2c1CCC2 | 106.0 | 101.0
Cc1ccc(CSc2nnc3[nH]c(=O)cc(-c4ccccc4)n23)cc1 | 109.0 | 111.0
O=C(Cn1c(-c2cccs2)cc2ccccc21)N1CCN(c2ccccc2F)CC1 | 103.0 | 93.0
COc1ccc(Cn2c(=O)n(-c3ccc(OC)cc3)c(=O)c3c2c2cc(OC)ccc2n3C)cc1 | 106.0 | 103.0
O=C(Cn1c(=O)nc(-c2ccccc2)c2ccccc21)N1CCN(c2ccc(F)cc2)CC1 | 110.0 | 109.0
CCCS(=O)(=O)c1c(S(=O)(=O)CCC)c2cc(C(C)(C)C)ccn2c1C(=O)c1ccccc1 | 99.0 | 100.0
CCN1C(=O)c2ccccc2S(=O)(=O)c2ccc(C(=O)NCc3ccccc3OC)cc21 | 109.0 | 112.0
Cc1nc2ccc(S(=O)(=O)NC(C(=O)NCc3ccc(Cl)cc3)C(C)C)cc2s1 (stereo not given) | 109.0 | 108.0
CC(C(=O)Nc1ccc(OC(F)(F)F)cc1)N1Cc2ccccc2C1=O (stereo not given) | 102.0 | 106.0
Cc1ccc(C(=O)N2CCN(c3ccc(F)cc3)CC2)cc1NC(=O)c1nsc2ccccc12 | 110.0 | 109.0
COc1ccc2sc(N(Cc3cccnc3)C(=O)CCc3ccccc3)nc2c1 | 105.0 | 98.0
COc1ccc(NC(=O)CCCn2c(=O)c3cccn3c3cccnc32)cc1Cl | 105.0 | 101.0
COc1cc(OC)cc(-n2nnc(-c3nc(-c4ccccc4Cl)no3)c2N)c1 | 110.0 | 119.0
COc1cccc(-c2nc(SCc3ccc(C)cc3)n3[nH]c(=O)cc3n2)c1 | 107.0 | 93.0
CCOC(=O)CSc1nc2cc3c(cc2c(=O)n1CCCC(=O)NCc1ccc2c(c1)OCO2)OCO3 | 107.0 | 109.0
CCOc1ccccc1NC(=O)CCc1c(C)nc2c3cccnc3nn2c1C | 102.0 | 101.0
CCN(C(=O)c1cn(C)c(=O)c2ccccc12)c1cccc(C)c1 | 99.0 | 98.0
CCCCOc1ccc(C(=O)N(Cc2ccco2)Cc2ccco2)cc1 | 107.0 | 99.0
COc1cccc(NC(=O)CCc2nc(-c3ccc(C(C)(C)C)cc3)no2)c1 | 109.0 | 112.0
Cc1cccc(NC(=O)c2c(N)sc3c2CCC(C)C3)c1 (stereo not given) | 103.0 | 105.0
CCOc1ccc(C2CC(=O)NC(NC(=O)c3cccc(Cl)c3)=N2)cc1 (stereo not given) | 112.0 | 117.0
COc1ccc(-c2cc(OC(=O)c3ccc(F)cc3)c3c(C)oc(C)c3c(=O)c2)cc1OC | 110.0 | 116.0
CCCOc1cccc(C(=O)N(Cc2ccc(C)o2)C2CCS(=O)(=O)C2)c1 (stereo not given) | 111.0 | 113.0
Cc1cccc(CNC(=O)c2ccc(Cn3c(=O)c4cccn4c4cccnc43)cc2)c1 | 109.0 | 111.0
CCOCCCNC(=O)C(c1ccc(C)cc1)N(Cc1ccc2c(c1)OCO2)C(=O)c1ccc(NC(C)=O)cc1 (stereo not given) | 105.0 | 103.0
Cc1ccc(-c2nnc(Nc3ccc(OC(F)(F)Cl)cc3)c3ccccc23)cc1S(=O)(=O)NC(C)(C)CO | 108.0 | 110.0
COc1ccc(-c2cc3ccc(O)c(CN4CCCC4)c3oc2=O)cc1 | 108.0 | 127.0
CSc1ncc(C(=O)N2CCN(c3cc(C)ccc3C)CC2)c(C)n1 | 108.0 | 115.0
COc1cccc(CNS(=O)(=O)c2cc3c(cc2C)n(C)c(=O)c(=O)n3C)c1 | 112.0 | 100.0
CCOC(=O)c1ccc(N2C(=O)c3n[nH]c(C)c3C2c2ccc(C(C)C)cc2)cc1 (stereo not given) | 111.0 | 114.0
CCc1ccc(Sc2cc(C(=O)NCCCN3CCCC(C)C3)c3ccccc3n2)cc1 (stereo not given) | 112.0 | 113.0
Cc1cccc(-c2nc3nc(C)cc(NCc4ccccc4Cl)n3n2)c1 | 104.0 | 110.0
CCCc1oc2ccc(NS(=O)(=O)c3ccc(OC)cc3)cc2c1C(=O)OCC | 104.0 | 104.0
COc1cc(CSc2ncc(CO)n2Cc2ccc(C)cc2)cc(OC)c1 | 104.0 | 105.0
Cc1ccc(N2CC(C(=O)Nc3ccc(N(C)C)cc3)CC2=O)cc1Cl (stereo not given) | 110.0 | 112.0
CCc1nc2ccc(C(=O)NCc3ccccc3C)cc2nc1CC | 108.0 | 102.0
COc1ccc(-n2c(=O)c3c4c(sc3n3c(SC(C)C)nnc23)COC(C(C)C)C4)cc1 (stereo not given) | 102.0 | 104.0
COc1ccc(CNC(=O)c2ccc3c(c2)N(Cc2ccccc2)C(=O)c2ccccc2S3=O)cc1 (stereo not given) | 101.0 | 98.0
COC(=O)N1CCCc2cc(S(=O)(=O)NCc3ccccc3)ccc21 | 100.0 | 104.0
CCCCOC(=O)c1ccc(NC(=O)c2cc(-c3ccccc3)on2)cc1 | 109.0 | 112.0
CC(=O)c1ccc(N2CCN(S(=O)(=O)c3c(C)nc4sc(C)cn4c3=O)CC2)cc1 | 102.0 | 106.0
CCc1ccc(-c2nc(CS(=O)CC(=O)NCCc3ccc(C)cc3)c(C)o2)cc1 (stereo not given) | 105.0 | 104.0
Cc1cc(C)cc(NC(=O)c2oc3ccc4c(c3c2C)C(=O)CC(C)(C)O4)c1 | 107.0 | 106.0
O=C(COCc1cc(-c2cccs2)on1)Nc1cc(C(F)(F)F)ccc1Cl | 115.0 | 115.0
Nc1c(-c2nc(-c3cccs3)no2)nnn1-c1ccc(Cl)cc1 | 118.0 | 119.0
CCCOc1ccc(C(=O)Nc2ccc(NC(=O)c3ccccc3)c(C)c2)cc1 | 105.0 | 112.0

# Going on with the list:
canonical_smiles | Polio RdRp inh | Polio RdRp inh intensity
Cc1cccc(OCC(=O)NC(Cc2c[nH]c3ccccc23)C(=O)O)c1C (stereo not given) | 104.0 | 107.0
CCOC(=O)N1CCc2c(sc(NCc3cccc(F)c3)c2C(=O)Nc2ccccc2OCC)C1 | 106.0 | 112.0
COc1ccc(-n2c(/C=C/c3cccc4ccccc34)nc3ccccc3c2=O)cc1OC | 107.0 | 108.0
O=C(NCC(c1ccc2c(c1)OCO2)N1CCN(c2ccc(F)cc2)CC1)c1cccc([N+](=O)[O-])c1 (stereo not given) | 102.0 | 103.0
Cc1cc(NC(=O)CSc2ncc(C(=O)Nc3ccccc3)c(=O)n2C)no1 | 104.0 | 106.0
O=C(Nc1ccccc1C(F)(F)F)c1noc2c1CCCC2 | 107.0 | 111.0
CC(=O)c1cc(-c2ccccc2)n(CC(=O)NC2CCCCCC2)c1C | 99.0 | 88.0
CC(=O)N1CCCc2cc(S(=O)(=O)N3CCC(C(=O)Nc4c(C)cccc4C)CC3)ccc21 | 104.0 | 108.0
COc1ccc(NC(=O)CCn2c(=O)c3cccn3c3cccnc32)c(OC)c1 | 112.0 | 102.0
Cc1c(C(=O)N(Cc2ccc(N(C)C)cc2)CC2CCCO2)oc2ccc(Cl)cc12 (stereo not given) | 113.0 | 115.0
CC(C)Oc1ccc(CNC(=O)c2ccc3c(c2)nc2n3CCCCC2)cc1 | 105.0 | 103.0
COc1ccccc1CNC(=O)CN1C(=O)COc2ccc(S(=O)(=O)NC3CCCC3)cc21 | 104.0 | 104.0
CCc1cccc(C)c1NC(=O)C1CCN(S(=O)(=O)c2cc(Br)cc3c2N(C(C)=O)CC3)CC1 | 104.0 | 109.0
CCOc1ccc(-c2oc3ccc(C)cc3c(=O)c2O)cc1 | 112.0 | 115.0
CCc1ccc(CNC(=O)c2cnc3sc4cc(OC)ccc4n3c2=O)cc1 | 113.0 | 114.0
COc1ccc(NC(=O)C(Cc2c[nH]c3ccccc23)NC(=O)OC(C)(C)C)cc1 (stereo not given) | 106.0 | 108.0
